Assay outcomes deposited in PubChem BioAssay by National Center for Advancing Translational Sciences (NCATS).
VACV Venus inh: inhibitors of vaccinia virus (Venus reporter). Vaccinia virus Venus reporter expression, fluorescence. Potency, µM (top dose mostly 36.5 µM), for the others: top-dose activity change, negative = inhibition, usual class: inhibitors. 330,000 tested, 0.46% active; active means well fitted inhibition curve with a large enough effect; inconclusive means small, poorly fitted or top-dose-only effect; inactive means no such curve, though single readings can be large or run the other way; tested in A549 cells; note: nearly all actives have a fitted effect of over 30% in size; inactives centre near -10
VACV mCherry inh: inhibitors of vaccinia virus infection (mCherry reporter signal); Vaccinia virus mCherry reporter infection, fluorescence; about a quarter of the inactives have no number; Potency, µM (top dose mostly 36.5 µM), for the others: at the highest dose activity change, negative = inhibition, usual class: inhibitors; 310,000 tested, 0.63% active; AID 720579; active = well fitted inhibition curve with a large enough effect; inconclusive = small, poorly fitted or top-dose-only effect; inactive = no such curve, though single readings can be large or run the other way; tested in A549 cells; note: nearly all actives have a fitted effect of over 35% in size; inactives centre near -10
Numbers without * were called inactive; i = inactive; ? = inconclusive; · = not tested or not shown; & = joins results of further samples; [ ] = remark or other dose. % is set by controls: 0 for no effect and ±100 for the full control effect; potency is the fitted concentration of half-maximal effect.

SMILES	VACV Venus inh	VACV mCherry inh
CCC1CN(CC(=O)NC(C)c2c(C)nn(C)c2C)Cc2cc(OC)ccc2O1 (stereo not given)	3.1%	-7.4%
COCCN1Cc2cccc(C(=O)NCc3cccnc3)c2C1=O	-2.4%	i
COc1ccc(NC(=O)c2oc3ccc(S(=O)(=O)N(C)C4CCCCC4)cc3c2C)cc1Cl	-11.7%	-13.2%
CC(Nc1ccc2c(c1)OCCO2)C(=O)N1CCc2ccccc21 (stereo not given)	-0.5%	-9.3%
CN(C)c1ccc(C#Cc2ccc3cc(CCO)oc(=O)c3c2)cc1	-24.1%	?
CCCCNC(=O)COC(=O)c1ccc(C)c(NC(=O)c2ccco2)c1	-16.6%	-16.7%
O=C(c1cccs1)N1N=C(c2ccccc2)CC1c1ccccc1O (stereo not given)	?	-10.6%
COCc1ccc(C(=O)N2CCCC(N(C)Cc3ccccc3)C2)s1 (stereo not given)	-15.1%	i
c1cnc2ccc(C(c3nnnn3C3CCCC3)N3CCN(c4nc5ccccc5s4)CC3)cc2c1 (stereo not given)	?	·
Cc1ccccc1NC(=S)NCc1cccn1C	5.8%	-3.5%
C/C(=N/NC(=O)CCC(=O)Nc1ccc(Br)cc1)c1ccc(Br)cc1	2.6%	-9.9%
NC(=O)c1nnn(-c2nonc2N)c1-c1ccc([N+](=O)[O-])cc1	-10.9%	-9.1%
O=[N+]([O-])c1ccccc1CSc1nnc2ccccn12	-8.1%	-9.1%
O=C(Nc1cccc(Cl)c1)c1ccc2c(=O)n3c(nc2c1)CCCCC3	-28.4%	?
NC(=O)c1c(C(F)(F)F)cc(-c2ccccc2)nc1NCCO	-26.0%	-8.2%
N#C/C(C(=O)NCc1ccccc1)=C1/N=C(NC(=O)c2ccco2)c2ccccc21	-7.5%	i
CC1(C)Cc2cccc(OCC(=O)Nc3cc(C(F)(F)F)ccc3N3CCOCC3)c2O1	-8.9%	i
NS(=O)(=O)c1ccc(CCNC(=O)CSc2nc3ccsc3c(=O)n2CC2CCC(C(=O)O)CC2)cc1 (stereo not given)	8.9%	-1.6%
Cc1ccc(-c2ccnc(-n3ncc(C(=O)N(C)CC4CCCN(C)C4)c3C)n2)o1 (stereo not given)	-9.3%	-6.0%
CCNC(=O)Nc1ccc(S(=O)(=O)Nc2cnc(C)nc2C)cc1	2.1%	-17.5%

The list goes on; the last 7 above are carried over.
SMILES	VACV Venus inh	VACV mCherry inh
O=C(Nc1cccc(Cl)c1)c1ccc2c(=O)n3c(nc2c1)CCCCC3	-28.4%	?
NC(=O)c1c(C(F)(F)F)cc(-c2ccccc2)nc1NCCO	-26.0%	-8.2%
N#C/C(C(=O)NCc1ccccc1)=C1/N=C(NC(=O)c2ccco2)c2ccccc21	-7.5%	i
CC1(C)Cc2cccc(OCC(=O)Nc3cc(C(F)(F)F)ccc3N3CCOCC3)c2O1	-8.9%	i
NS(=O)(=O)c1ccc(CCNC(=O)CSc2nc3ccsc3c(=O)n2CC2CCC(C(=O)O)CC2)cc1 (stereo not given)	8.9%	-1.6%
Cc1ccc(-c2ccnc(-n3ncc(C(=O)N(C)CC4CCCN(C)C4)c3C)n2)o1 (stereo not given)	-9.3%	-6.0%
CCNC(=O)Nc1ccc(S(=O)(=O)Nc2cnc(C)nc2C)cc1	2.1%	-17.5%
CC(C)Oc1ccc(CNC(=O)c2cc3ccccn3n2)cc1	-1.0%	-4.9%
CNc1nccc(-c2ccc(F)cc2)c1C#N	-20.5%	-11.8%
CC(=O)Nc1ccc(S(=O)(=O)N(Cc2ccccc2)Cc2ccccc2)cc1	-7.8%	-7.2%
Cc1ccc(-c2nc(CN(C)C)cc(CN(C)C)c2O)cc1	-2.5%	-8.4%
COc1cccc(-c2cc(C(=O)O)c3cc4ccccc4cc3n2)c1OC	0.7%	i
Cc1ccc(N(CCC#N)C(=O)COC(=O)c2cc(C)oc2C)cc1	-6.6%	i
CCCCCCNc1nc2c(c(=O)n(C)c(=O)n2C)n1Cc1cccc(C)c1	-15.4%	-26.1%
CCOC(=O)C1=C(C)NC(=O)NC1c1cc2c(cc1Br)OCO2 (stereo not given)	-13.3%	·
CC(=O)c1ccccc1C(=O)N(C)C1CCCN(Cc2ccccc2F)C1 (stereo not given)	-10.6%	i
CCOC(=O)C1CCCN(C(=O)C2CCN(S(=O)(=O)c3c(C)noc3/C=C/c3ccccc3F)CC2)C1 (stereo not given)	0.0%&-0.6%[7.34 µM]	-3.8%[7.34 µM]
CCOC(=O)c1c(C)[nH]c(O)c1C=Nc1ccc(C(F)(F)F)cc1	-6.3%	-4.7%
NC(=O)c1ccsc1NC(=O)CCS(=O)(=O)c1ccccc1	?	?
O=C(NCC(=O)N1CCN(S(=O)(=O)c2ccccc2F)CC1)c1ccc2c(c1)OCO2	-5.8%	-20.1%
Nc1cc(S(=O)(=O)N2CCCCC2)ccc1N1CCCCC1	-6.5%	-14.0%
Cc1ccc(S(=O)(=O)Nc2ccc(F)cc2)cc1C(=O)N1CCOCC1	-8.8%	i
OC[C@H]1OC([S-])[C@H](O)[C@@H](O)[C@@H]1O.[Au+] (stereo not given in full)	-0.5%	-14.6%
COC(=O)C1=C(C)C(c2ccc(OC)cc2)NC(=S)N1 (stereo not given)	-13.4%	-15.6%
CCOc1ccccc1CNC(=O)CN1C(=O)CCc2cc(S(=O)(=O)N3CCCCC3)ccc21	-11.9%	-8.7%
CCC(=O)N1CCC1(C)C(=O)Nc1cccc(OC)c1 (stereo not given)	4.5%	38.8%[activator]
Cc1cn(CC(=O)NCC(c2ccccc2)c2ccccc2)c(=O)[nH]c1=O	-5.3%	i
Cn1c(=O)cc(OCC(=O)N2CCC(N3CCCCC3)CC2)c2ccccc21	-16.4%	-6.8%
FC(F)(F)c1cccc(OCCOCCn2cncn2)c1	-4.2%	-10.5%
O=C(CSc1ccc(Cl)cc1Cl)N1CCC(c2nc3ccccc3s2)CC1	-21.4%	·
CC(=O)c1cnc2c(-c3ccc(Cl)cc3)cnn2c1C	-7.2%	-8.2%
Cc1ccc(N2CC(NC(=O)c3ccc(S(=O)(=O)N4CCOCC4)cc3)CC2=O)cc1 (stereo not given)	-4.6%[7.34 µM]	-5.4%[7.34 µM]
CCN(Cc1ccccc1)C(=O)CSc1n[nH]c(N)n1	5.2%	11.4%
O=C(CSc1nnnn1CCCO)Nc1ccc2c(c1)OCO2	-14.4%	-9.3%
O=S1(=O)N=C(N2CCN(Cc3ccc4c(c3)OCO4)CC2)c2ccccc21	-11.3%	i
CCN(CC)S(=O)(=O)c1ccc(N2CC(C(=O)NCc3cccnc3)CC2=O)cc1 (stereo not given)	-0.7%	-2.9%
COc1ccccc1-c1cc2nc(C)c(CCC(=O)NCc3ccco3)c(C)n2n1	-17.3%	-18.4%
O=C(COC(=O)c1cc(S(=O)(=O)N2CCCCC2)ccc1Cl)NC1CCCCC1	-5.4%	i
CCOc1ccc(CCNS(=O)(=O)c2c(C)nc3sc(C)cn3c2=O)cc1OCC	1.5%	-5.7%
OC(c1ccccc1)C(CN1CCOCC1)c1ccccc1 (stereo not given)	-16.9%	?
Cc1ccnc(NS(=O)(=O)c2ccc(NC(=O)C3CCCCC3C(=O)O)cc2)n1 (stereo not given)	-5.3%	·
CSc1ccc(C2=CC(=O)C[C@H](c3ccc4c(c3)OCO4)C2)cc1	-13.8%	i
Cc1cc(C)cc(NC(=O)c2ccc(NC(=O)C3C4CC5OC(=O)C3C5C4)cc2)c1 (stereo not given)	-7.1%	-8.2%
CN(CC(=O)Nc1c(Cl)cccc1Cl)C(=O)c1ccc2ccccc2n1	-5.5%	-11.7%
Cc1ccc(CN2C(=O)C(C)Nc3ncnc(N4CCOCC4)c32)cc1 (stereo not given)	-17.3%	i
Cc1cccc(C)c1NC(=O)C(=O)NCCc1c[nH]c2ccccc12	6.4%	?
CC1CC(C)CN(S(=O)(=O)c2ccc(C(=O)OCC(=O)NCCN3C(=O)CSC3=O)cc2)C1 (stereo not given)	-4.6%	i
Cc1ccc2nc(SCCC(=O)O)cc(C)c2c1	-12.0%	-6.3%[1.46 µM]
CN(C)S(=O)(=O)c1ccc(C(=O)OCc2ccc([N+](=O)[O-])cc2)cc1	-3.7%	i
Cc1ccc(C(=O)N/N=C/c2nc3ccccc3n2C)cc1	-25.8%	-17.9%
Cc1ccc(NC(=O)c2ccc(COc3ccc4c(c3)CCC4)cc2)c(C)c1	-4.0%	-4.1%
O=C(c1ccc(CS(=O)(=O)c2c(Cl)cccc2Cl)o1)N1CCCC1	-3.3%	5.5%
C(=N\c1nc2ccccc2n1Cc1ccccc1)/c1cccs1	-21.1%	-14.9%
Cc1ccc(C(=O)CN2C(=O)NC3(CCCCCC3)C2=O)c(C)c1	?	-18.2%
CC(=O)NC1=NN(C(C)=O)C(c2ccc(C)cc2)S1 (stereo not given)	-5.1%	-1.5%
COc1cccc(C2=NOC(C(=O)Nc3ccc4c(c3)OCO4)C2)c1 (stereo not given)	8.7%	i
O=C1C2C(c3ccccc3)C=CC(c3ccccc3)C2C(=O)N1CCO (stereo not given)	-25.0%	-18.9%
Carrying on:
SMILES	VACV Venus inh	VACV mCherry inh
COc1cccc(N2CCN(C(=O)c3c(C)oc4ncnc(N5CCCCC5)c34)CC2)c1	-10.9%	-14.4%
O=C1c2cccc3cc([N+](=O)[O-])cc(c23)C(=O)N1c1nncs1	7.0%	-3.7%
Fc1ccc(NC(=S)Nc2ccccc2Cl)cc1	6.1%	i
COc1ccc(CCNS(=O)(=O)c2c(C)[nH]c(C)c2C(=O)N2CCCCC2)cc1OC	-14.0%	i
Cc1ccccc1NP1(=O)OCCCN1Cc1ccccc1Cl (stereo not given)	-6.3%	i
O=C1OCCC1Sc1nnnn1-c1ccccc1 (stereo not given)	-17.2%	-18.4%
O=C1C2C3C=CC(C3)C2C(=O)N1c1ccc(-c2nc3ccccc3o2)cc1 (stereo not given)	-0.6%	-11.9%
CCCN1Cc2cccc(C(=O)Nc3ccc(OC)c(OC)c3)c2C1=O	8.2%	-22.2%
COc1cccc(C=Nc2cc(C)cc(C)c2)c1O	-7.6%	-15.5%
C[C@]12CCC3C(CC[C@H]4[C@@H](O)[C@H](O)CC[C@]34C)C1CCC2=O (stereo not given in full)	-5.1%	-12.5%
O=C(CN1CCN(Cc2ccccc2)CC1)Nc1ccc(N2CCOCC2)cc1	-6.7%	-3.5%
CSc1nccc(Oc2ccc(C#N)cc2)n1	-10.4%	-1.5%
COc1ccc(-c2onc(C)c2C)cc1S(=O)(=O)NCc1cccs1	-28.8%	-6.1%
CC(C)Cn1c(N)c(C(=O)CSc2nc3ccccc3n2C)c(=O)n(C)c1=O	-13.5%	-8.9%
S=c1[nH]nc(-c2ccco2)n1/N=C/c1cccc(Cl)c1Cl	-12.6%	i
CN(C)c1ccc(/C=C/c2ccc3cc(N(C)C)ccc3n2)cc1	23.8%	i
CCN1CCN(Cc2ccc(NC(=O)c3ccc(C)c(NC(=O)N4CCNC4=O)c3)cc2C(F)(F)F)CC1	?	?
CCc1nnc(NC(=O)CSCc2cc(=O)c3ccc(C)cc3[nH]2)s1	-5.1%	4.5%
COCCNC(=O)c1onc(CSc2cc(C)cc(C)c2)c1C(=O)O	-12.2%	i
CC(C)OC(=O)CC(=O)CC(O)c1cccc([N+](=O)[O-])c1 (stereo not given)	-1.8%	i
COc1ccc2sc3cccc(NCCN(C)C)c3c(=O)c2c1	-26.8%	3.3%
COc1ccccc1N1CCN(C(=O)NCc2cccc(C(F)(F)F)c2)CC1	1.3%	-18.2%
CCOc1cccc2sc(NC(=O)CC)nc12	-14.5%	-22.7%
CCOC(=O)N(NC(=O)C(O)(c1ccccc1)c1ccccc1)c1ccccc1	-2.8%	-15.0%
Cc1c(NP(=O)(C(C)(C)C)C(C)(C)C)c(=O)n(-c2ccccc2)n1C	-3.9%	i
CCN1CCC(O)(/C=C/c2ccc(C(C)C)cc2)C(C(=O)/C=C/c2ccc(C(C)C)cc2)C1 (stereo not given)	?	11.2µM*
Cc1occc1C(=O)NC(C)C(C)(C)C (stereo not given)	-5.0%	-3.1%
COc1ccc(Cc2nc(C)cc(Cl)n2)cc1[N+](=O)[O-]	-13.8%	-23.0%
O=C(O)c1ccc(N2C(=O)CCCC2=O)cc1	-7.2%	i
CC(OC(=O)c1cccc(S(=O)(=O)N(C)C)c1)C(=O)NCc1ccc2c(c1)OCO2 (stereo not given)	-1.0%	-12.2%
CCOC(=O)[C@H]1[C@H]2COc3ccccc3[C@@H]2N2C(=O)c3ccc(Cl)cc3NC(=O)[C@@]12C	?	-12.3%
O=C(COC(=O)c1ccccc1NCCO)NNC(=O)c1cccs1	8.6%	i
COc1cc2c(C(=O)N3CCN(c4cc(Cl)ccc4C)CC3)cn(CC(C)C)c(=O)c2cc1OC	-10.3%	-14.1%
CN(C(=O)c1cccc(NC(=O)Cc2ccc(NC(=O)C3CCN(C(=O)C4CCCC4)CC3)cc2)c1)C1CCCC1	-26.3%	i
CCOC(=O)C1CCN(C(=O)/C=C/c2cccs2)CC1	-18.6%	-26.9%
CCOC(=O)N1CCN(C(=O)c2cc3ccc(OC)cc3[nH]2)CC1	-6.6%	i
O=C(CSc1nncn1-c1ccccc1F)NC1CC1	-8.2%	i
Cc1ccc(CSCC(=O)N/N=C/c2sccc2C)cc1	-18.6%	·
CCSc1nnc(NC(=O)c2ccc(Br)s2)s1	-21.4%	-29.7%
CC(C)=CCn1c2ccc(NC(=O)NCc3ccc(F)cc3)cc2c(=O)n1C	?	-27.2%
COc1ccc(O)c(C(=O)N2CCC3(CC2)c2ccccc2[C@@H](NC(=O)c2ccccn2)[C@@H]3OC)c1	12.8%	-9.2%
COc1ncnc2c1ncn2CCCN1CCN(c2ccccn2)CC1	-12.9%	-20.3%
